NPR1 antag – blocks ANP-stimulated signaling of human Npr1 receptor; P16066; HEK293 hNpr1 GloSensor cGMP, ANP-stimulated luminescence; Potency, µM (top dose mostly 46.3 µM), inactives show top-dose activity change, negative = inhibition, actives largely listed as inhibitors; hit rate 1.6% among 76,000; active = well fitted inhibition curve with a large enough effect; inconclusive = small, poorly fitted or top-dose-only effect; inactive = no such curve, though single readings can be large or run the other way;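 also: nearly all actives have a fitted effect of over 60% in size; nearly all hits also lower the signal before the agonist is added; a reference antagonist and vehicle were the controls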
Target sequence (P16066 whole entry, looked up): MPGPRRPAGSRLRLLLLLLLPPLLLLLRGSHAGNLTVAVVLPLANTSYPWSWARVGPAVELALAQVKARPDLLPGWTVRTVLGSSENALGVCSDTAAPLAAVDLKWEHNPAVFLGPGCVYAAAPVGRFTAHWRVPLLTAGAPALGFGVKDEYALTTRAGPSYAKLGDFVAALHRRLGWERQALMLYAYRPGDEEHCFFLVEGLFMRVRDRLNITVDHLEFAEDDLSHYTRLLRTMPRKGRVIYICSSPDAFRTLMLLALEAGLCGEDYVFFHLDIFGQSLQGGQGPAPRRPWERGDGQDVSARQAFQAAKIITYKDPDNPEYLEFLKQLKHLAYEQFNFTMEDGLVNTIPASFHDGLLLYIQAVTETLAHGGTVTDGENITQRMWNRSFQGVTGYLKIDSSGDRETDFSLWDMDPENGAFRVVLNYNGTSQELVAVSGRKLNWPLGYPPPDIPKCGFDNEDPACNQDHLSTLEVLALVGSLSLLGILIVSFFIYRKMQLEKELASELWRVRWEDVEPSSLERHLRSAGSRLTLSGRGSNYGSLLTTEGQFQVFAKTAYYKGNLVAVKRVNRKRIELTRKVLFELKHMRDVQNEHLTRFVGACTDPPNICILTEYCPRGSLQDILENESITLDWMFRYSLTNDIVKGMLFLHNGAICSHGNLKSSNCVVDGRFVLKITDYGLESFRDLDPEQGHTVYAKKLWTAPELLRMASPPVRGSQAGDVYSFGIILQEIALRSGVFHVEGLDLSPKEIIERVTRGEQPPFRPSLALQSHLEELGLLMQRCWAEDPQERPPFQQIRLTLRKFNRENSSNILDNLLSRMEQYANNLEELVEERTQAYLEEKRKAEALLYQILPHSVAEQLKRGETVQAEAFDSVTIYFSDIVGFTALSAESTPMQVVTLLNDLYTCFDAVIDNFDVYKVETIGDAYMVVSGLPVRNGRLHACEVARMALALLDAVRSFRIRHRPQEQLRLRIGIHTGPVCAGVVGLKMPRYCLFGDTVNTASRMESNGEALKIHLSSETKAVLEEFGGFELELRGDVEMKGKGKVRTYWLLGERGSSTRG
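Compound pre-incubated 30 min at room temperature on GloSensor-loaded HEK293 cells stably carrying hNpr1 and the pGS-40F cGMP biosensor. Stimulation uses hNppA at 0.1 nM final; luminescence is taken at baseline and 20 min post-agonist.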
* hit, by the source's call; u = inconclusive; & = joins results of further samples; [ ] = remark or other dose. % is scaled to controls: 0 for no effect and ±100 for the full control effect; potency is read from the fitted curve at half-maximal effect. These rows are one share of the data, so the mix of outcomes need not match the whole.

Start of the data: the first two compounds, to show the layout:
#	structure	NPR1 antag
1	C[C@@H](NC(=O)c1ccc2c(c1)OCO2)c1onc(-c2ccc(Cl)cc2)c1C(=O)O	3%[70.6 µM]
2	CC[C@H]1CN(C(=O)NC2CCCCC2)CC[C@H]1CC(=O)NCc1ccco1	6%[70.6 µM]

Results, from the first entry:
#	structure	NPR1 antag
1	C[C@@H](NC(=O)c1ccc2c(c1)OCO2)c1onc(-c2ccc(Cl)cc2)c1C(=O)O	3%[70.6 µM]
2	CC[C@H]1CN(C(=O)NC2CCCCC2)CC[C@H]1CC(=O)NCc1ccco1	6%[70.6 µM]
3	CCn1ccc(C(=O)N2CCC3(CCCCO3)CC2)n1	-4%
4	CC1(c2noc(C3CC3)n2)CCN(C(=O)CCc2nc3ccc(Cl)cc3[nH]2)CC1	-20%
5	O=C1CC(NS(=O)(=O)N2CCCC2)CN1CCc1ccccc1 (configuration not stated)	-2%
6	Cc1ccc(CNC(=O)c2noc(-c3ccc4c(c3)OCO4)n2)cc1	-6%
7	CC1(C)C[C@H](NC(=O)c2ccccc2)[C@@]2(CCC(=O)NC3CC3)CC[C@](C)(O)C[C@@H]12	2%[70.6 µM]
8	CCNC(=O)N1CCC2(CC1)N(C)C(=O)CS2=O (configuration not stated)	10%
9	COC[C@@H]1CN(Cc2ccc(C#N)cc2)C[C@H]1C(=O)NC1CC1	-2%
10	CN1CCN(Cc2nc(C3(O)CCN(C(=O)Cc4ccccc4)CC3)cs2)CC1	-1%[70.6 µM]
11	COc1ccc([C@H]2C[C@@H](O)[C@@H](O)[C@@H]2NC(=O)c2ccc(C(F)(F)F)cc2)cc1	-11%[70.6 µM]
12	Cc1ccsc1CN1CCc2nc(N(C)Cc3cccnc3)[nH]c(=O)c2CC1	-1%
13	CN1C(=O)C2(CCN(CC3CCCCC3)C2)c2ccccc21 (configuration not stated)	8%[70.6 µM]
14	CNC(=O)[C@@H]1CN(C(=O)Cc2ccc(OC)c(OC)c2)C[C@H]1COC	2%
15	CCS[C@H]1CCN2C(=O)c3cc(-c4ccccc4F)ccc3NC(=O)[C@H]12	3%[70.6 µM]
16	Oc1ccccc1CN1CCOC[C@H]1c1ncc(-c2cccc(Cl)c2)[nH]1	-18%[70.6 µM]
17	O=C(O)[C@H](Cn1ccc(=O)[nH]c1=O)NC1CCC1	0%[70.6 µM]
18	Cn1ccc(C(=O)N2CCCC(CCc3ccccc3C(F)(F)F)C2)n1 (configuration not stated)	-17%
19	O=C(NCCC1CCN(C(=O)Nc2ccc(F)cc2F)CC1)c1ccco1	4%
20	CC(C)CC(=O)N1C[C@@H]2CCCN3CCC[C@@H]([C@H]23)[C@H]1CCCC(=O)NCC1CC1	3%
21	O=C(NCC1Cn2cccc2CN1Cc1cccnc1)Nc1ccccc1 (configuration not stated)	6%
22	COCc1ccc2c(c1)c(OC(C)(C)C(=O)NCc1cnccn1)nn2Cc1cccc(OC)c1	0%
23	O=C1CC(c2ccccc2)N(C(=O)CNC(=O)CN2CCCCCC2)CCCCCN1 (configuration not stated)	-8%
24	CC(CNC(=O)c1noc(-c2ccc(F)cc2)n1)c1ccccc1 (configuration not stated)	-1%
25	OC(CCc1ccccc1)C1CCN(Cc2nc(-c3ccccn3)no2)CC1 (configuration not stated)	-5%

The list goes on (6 carried over from the part before).
#	structure	NPR1 antag
20	CC(C)CC(=O)N1C[C@@H]2CCCN3CCC[C@@H]([C@H]23)[C@H]1CCCC(=O)NCC1CC1	3%
21	O=C(NCC1Cn2cccc2CN1Cc1cccnc1)Nc1ccccc1 (configuration not stated)	6%
22	COCc1ccc2c(c1)c(OC(C)(C)C(=O)NCc1cnccn1)nn2Cc1cccc(OC)c1	0%
23	O=C1CC(c2ccccc2)N(C(=O)CNC(=O)CN2CCCCCC2)CCCCCN1 (configuration not stated)	-8%
24	CC(CNC(=O)c1noc(-c2ccc(F)cc2)n1)c1ccccc1 (configuration not stated)	-1%
25	OC(CCc1ccccc1)C1CCN(Cc2nc(-c3ccccn3)no2)CC1 (configuration not stated)	-5%
26	COCCC(=O)N1CCC2(CC1)NCCc1c2[nH]c2ccccc12	-8%
27	C=CCN(C)C(=O)[C@@H](C)C1CC[C@@]2(C)Cc3sc(NC(=O)C4CC4)nc3[C@@H](C)[C@@H]2[C@H]1O (some centres not stated)	4%
28	O=C(Cc1c[nH]c2ncc(-c3ccccc3)cc12)NC1CC1	u
29	O=C(NCCc1cnccn1)c1cccc(S(=O)(=O)NC2CCOC2)c1 (configuration not stated)	0%
30	COc1ccc(C(=O)N2CCN(C(=O)C3CCCCC3)C[C@@H]2C(=O)N[C@H]2CCCNC2=O)cc1	-1%
31	CN1C(=O)CCC2(CNC(=O)c3ccco3)CCCC=C12 (configuration not stated)	8%
32	CC(=O)N1CCN(c2ccc3nnc(-c4cc(C(=O)N(C)C)ccn4)n3n2)CC1	-4%[70.6 µM]
33	COc1cc(NC(=O)N2CC[C@H](c3nc4ccccc4o3)C2)cc(OC)c1	2%[70.6 µM]
34	Cc1cccc(C(=O)N2C[C@@H](Oc3ccccc3)C[C@H]2C(=O)N2CCOCC2)c1	1%
35	COc1ccc(C(=O)N[C@H]2C[C@@H](Cc3cc(CN(C)C)on3)C2(C)C)cc1	-3%[70.6 µM]
36	O=C([C@@H]1C[C@H](Oc2ccccc2)CN1C(=O)Cn1c(=O)oc2ccccc21)N1CCCC1	4%
37	COc1cccc(N2CC(C(=O)N3CCC(C(=O)NCC(F)(F)F)C3)NC2=O)c1 (configuration not stated)	19%
38	N#Cc1ccc(C(=O)NCc2nnc3ccc(-c4ccc(F)cc4)nn23)cc1	6%
39	CN(C)Cc1nnc(C2CCN(C(=O)c3cn[nH]c3-n3cnnn3)CC2)n1C	5%
40	CN(Cc1nc(-c2ccncc2)no1)C(=O)C1CNCCO1 (configuration not stated)	3%
41	CC(C)c1ccc(OCC(=O)c2ccc3c(c2)N(CCCC(=O)NCC2CC2)C(=O)CO3)cc1	1%
42	COCC(=O)NCC12CCCC=C1NC(=O)CC2 (configuration not stated)	1%
43	C[C@@H]1CN(C(=O)CCc2cnccn2)C[C@@]1(O)C1CC1	7%
44	Cc1ccc(NC(=O)C2CCCCC(=O)N2)cc1F (configuration not stated)	4%
45	Cn1ccnc1-c1ccc(N2CCC(CO)(CCOc3ccccc3)CC2)nn1	-19%
46	CC(Cc1ccncc1)Nc1nccc(-c2cnn(-c3ccccc3)c2)n1 (configuration not stated)	-24%
47	COc1ccccc1CNC(=O)c1ccc2c(c1)CC(=O)N2Cc1ccc(F)cc1	-14%
48	COc1ccc(CC(=O)N2CCC(c3n[nH]c(=O)n3-c3ccc(C)cc3)CC2)cc1Cl	4%
49	O=C1Cc2c(-c3ccccc3Cl)n[nH]c2CN1Cc1ccccc1	-1%[70.6 µM]
50	COc1ccccc1-c1noc(CCC(=O)N2CCc3c(nc4cc(-c5ccccc5)[nH]n4c3=O)C2)n1	-13%
51	COc1ccccc1NC(=O)c1c(C)oc2ccn(Cc3ccc(F)cc3)c(=O)c12	-18%
52	CCC(C(=O)NCc1nnc2c(-c3nc(C)no3)cccn12)c1ccccc1 (configuration not stated)	-7%
53	Cc1nc(-c2ccc(F)cc2)n(CC(=O)Nc2ccc3c(c2)OCO3)c(=O)c1CCO	-13%
54	Cc1cc(C(=O)N[C@H](C)c2onc(C)c2C(=O)O)no1	-1%[70.6 µM]
55	COc1cc(OC)cc(C(=O)N2CCN(c3cc(-c4ccc(Cl)cc4)[nH]n3)CC2)c1	u
56	O=C(Nc1nccs1)C1CC(=O)N(c2n[nH]c3cccc(F)c23)C1 (configuration not stated)	-1%
57	COc1ccc(NC(=O)O[C@@H]2CO[C@H]3[C@@H]2OC[C@@H]3NS(=O)(=O)Cc2ccccc2)cc1	-3%
58	CC1=C(C(=O)N(C)C)C(c2ccc(Cl)cc2)N2C(CC(=O)NCc3ccccc3)=CSC2=N1 (configuration not stated)	-5%
59	CCOc1ccccc1CN1CCC2(CCN(C(=O)OC)CC2)Oc2ccccc21	0%
60	COCCOC1CCOC2(CCN(S(=O)(=O)Cc3ccccc3)CC2)C1 (configuration not stated)	-3%
61	CC(=O)Nc1ccc(C2(C(=O)NCc3ccc(F)c(Cl)c3)CCC2)cc1	-2%
62	Cc1ccccc1Oc1ncccc1CNCc1cccc(O)c1	-29%
63	CNC(=O)[C@@H](c1ccccc1F)N1CCC[C@H]1C(=O)N(C)CCN(C)C	5%[70.6 µM]
64	CC(C)N1CC2(C1)C(=O)N(C)C(=O)[C@@H]1C[C@@H](O)CN12	1%[70.6 µM]
65	O=C(NC1CCCCC1)c1ccc(CN2C(=O)NC3(CCS(=O)(=O)CC3)C2=O)cc1	0%
66	COc1ccc(Nc2cnc3ccc(-c4ccc(OC)c(OC)c4)nn23)cn1	1%[70.6 µM]
67	CCNC(=O)NC[C@H]1O[C@H](Cc2cc(CN(C)Cc3ccccc3)on2)CC[C@@H]1O	3%[70.6 µM]
68	CC(C)C(=O)N1CCC(N2C(=O)C3(CCCC3)C2c2ccccc2)CC1 (configuration not stated)	-2%
69	O=C(NCCCc1ccccc1)c1nnn2c1COC(c1ccc(Br)cc1)C2 (configuration not stated)	0%
70	CCC(CC)NC(=O)C1CCCN(C(=O)c2ccccc2)CCC(=O)NCC1 (configuration not stated)	3%
71	CCOC(=O)C1(Cc2ccc(F)cc2)CCCNC1 (configuration not stated)	4%
72	COc1cc(OC)cc(-c2onc(C)c2C(=O)NCc2ccc(F)c(F)c2)c1	4%
73	O=C1[C@@H]2C[C@@H](CN2Cc2ccccc2)Oc2ccccc2N1CC1CC1	-2%[70.6 µM]
74	COc1ccc(C(=O)N2CCc3ccc(C(=O)NCc4ccccc4C)cc32)cc1	-12%
75	COc1cc(-c2nc(C3CC(=O)N(c4ccc(C)cc4)C3)no2)cc(OC)c1OC (configuration not stated)	4%

Going on with the list:
#	structure	NPR1 antag
76	CN(CC1CCOC1)C(=O)c1cccc(Br)c1 (configuration not stated)	-1%
77	O=C(c1ccccc1-c1ccccc1)N1CCC(c2ncc[nH]2)CC1	-17%
78	COc1cc2c(cc1OC)C(C[C@H]1CN(S(=O)(=O)c3ccc(Cl)cc3)CC[C@H]1CC(=O)O)=NCC2	-2%
79	Cc1ccncc1C(=O)N1CCOc2c(O)cc(-c3ccccc3C)cc2C1	-2%
80	O=C(c1ccccn1)C1CCCN(C(=O)c2cnc(-c3cccnc3)nc2)C1 (configuration not stated)	-1%
81	COc1cc(F)ccc1-c1nccc2c(=O)cc(N3CCOCC3)oc12	2%[70.6 µM]
82	COc1cccc(S(=O)(=O)N2CCC3(CC2)C(OC)CN3c2cccc(F)c2)c1 (configuration not stated)	-2%
83	COCCN1C(=O)c2cccn2CC1CNC(=O)COc1ccccc1 (configuration not stated)	-13%
84	Clc1cccc(Nc2cc3c(cn2)CN(Cc2cccnc2)CCN3)c1	u
85	c1cncc(-c2nnc([C@H]3CCN(C4CCOCC4)C3)o2)c1	7%[70.6 µM]
86	O=C(Cc1cccs1)N1CCC(Oc2ccccc2)C1 (configuration not stated)	-4%
87	CCOc1ccc(NC(=O)C2Cn3cccc3C(=O)N2)cc1 (configuration not stated)	-2%
88	Cn1ccc2c(C(=O)NCCc3cnc[nH]3)nc(-c3ccccc3)cc21	-12%[70.6 µM]
89	O=S(=O)(c1ccc2c(c1)OCCO2)N1CCCC(c2nc(CCOCC3CC3)no2)C1 (configuration not stated)	-15%
90	C=CCOc1cccc(-c2nc(C(=O)N(C)CC)cs2)c1	-12%
91	O=C1NCCOCCCN(S(=O)(=O)c2cccc(F)c2)[C@H]2CCC[C@@H]12	-1%
92	CN1CCC2(CCCN(Cc3cc4n(n3)CCCNC4)C2)C1 (configuration not stated)	-5%
93	OCC1CN(C2CCC2)CC12CCN(Cc1cc(F)ccc1F)CC2 (configuration not stated)	-5%
94	Cc1ccc(Cn2c(-c3ccc(F)cc3)nc(C)c(CCO)c2=O)cc1	-1%
95	COc1cccc(C(=O)N2CCC(N3CCCNC3=O)CC2)c1	0%&3%[70.6 µM]
96	Cc1ccc(NC(=O)N[C@@H]2C=C(C(=O)N[C@H]3CCCNC3=O)C[C@@H](O)[C@@H]2O)cc1	-3%[70.6 µM]
97	CN1CCC2(CCC1=O)CN(C(=O)c1nn(C)c3c1CCCC3)CCN2C (configuration not stated)	6%
98	O=C(NC1CCN(c2cc(-c3ccc(F)cc3)[nH]n2)CC1)c1ccc(F)cc1F	-20%
99	Cn1cnc(S(=O)(=O)N2CCCC(Cn3cnc4cccnc43)C2)c1 (configuration not stated)	-8%
100	CCN1C(=O)CCc2cc(NC(=O)Cc3ccc(OC)c(Cl)c3)ccc21	-13%

Exported with the structure last: part of the list above.
| entry | NPR1 antag | canonical_smiles |
| --- | --- | --- |
| 85 | 7%[70.6 µM] | c1cncc(-c2nnc([C@H]3CCN(C4CCOCC4)C3)o2)c1 |
| 84 | u | Clc1cccc(Nc2cc3c(cn2)CN(Cc2cccnc2)CCN3)c1 |

More records.
#	structure	NPR1 antag
101	CC(C)CN(CC1CN(C(=O)Nc2cccc(Cl)c2)CCO1)C(=O)c1ccc(F)cc1 (configuration not stated)	-5%
102	COCCN1C(=O)CC[C@]2(C(=O)NCc3cccc(OC)c3)CCCC[C@@H]12	-6%
103	Cc1ccc2c(n1)N(C)[C@H](CO)CCN(Cc1ccccc1C)C2	-1%[70.6 µM]
104	CN(C)c1cccc(-c2nccc3c(=O)cc(N4CCOCC4)oc23)c1	1%[70.6 µM]
105	Cc1ncsc1CN1CCC(Cc2ncc(C)n2CC2CC2)C1 (configuration not stated)	7%
106	CC(C)NC(=O)Cc1ccc(N(Cc2cccc(F)c2)C(=O)c2ccco2)cc1	-5%

Source: PubChem BioAssay
